PAD4 FP inh – blocks human protein arginine deiminase 4; hit rate 0.41% among 330,000; recombinant PAD4, RCA probe fluorescence polarization; inhibition, % at 6.36 µM; AID 485272;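 active means percent inhibition above a cutoff equal to the mean of all tested compounds plus 3 SD, cut at about 15% in these data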;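 further: 0% = PAD4 with RCA probe and DMSO and 100% = probe without PAD4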
Target sequence (Q9UM07 whole entry, looked up): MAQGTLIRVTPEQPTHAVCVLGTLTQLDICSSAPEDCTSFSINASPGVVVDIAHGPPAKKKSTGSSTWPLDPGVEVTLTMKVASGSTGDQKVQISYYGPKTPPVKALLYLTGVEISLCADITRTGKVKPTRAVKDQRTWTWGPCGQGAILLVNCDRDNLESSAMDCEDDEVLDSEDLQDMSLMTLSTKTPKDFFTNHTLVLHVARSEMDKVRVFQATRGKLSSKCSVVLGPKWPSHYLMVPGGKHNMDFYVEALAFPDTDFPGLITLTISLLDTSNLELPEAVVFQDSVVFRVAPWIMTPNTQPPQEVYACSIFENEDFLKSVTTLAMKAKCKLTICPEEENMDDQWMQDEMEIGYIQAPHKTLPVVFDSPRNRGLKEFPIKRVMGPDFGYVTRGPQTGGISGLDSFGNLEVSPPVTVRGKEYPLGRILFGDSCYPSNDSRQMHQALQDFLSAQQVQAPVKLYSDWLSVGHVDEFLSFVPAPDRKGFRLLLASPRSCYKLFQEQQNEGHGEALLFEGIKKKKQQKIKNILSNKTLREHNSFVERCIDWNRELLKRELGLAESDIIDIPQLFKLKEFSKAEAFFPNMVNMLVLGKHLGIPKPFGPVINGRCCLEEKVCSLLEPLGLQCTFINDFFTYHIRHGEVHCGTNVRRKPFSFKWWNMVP
MEX-5 binding – C. elegans MEX-5 TCR-2 RNA binding activity | Q9XUB2 | MEX-5/FITC-TCR2 RNA binding, fluorescence polarization; stronger effect = lower value | activity score (negative = inhibition of binding), % at 10 µM | hit rate 0.38% among 300,000 | AID 1832;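 active means inhibition past about -25% in most replicates, and total fluorescence under double the plate's negative control median, limit read from the data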;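 further: 0% = DMSO and -100% = 5 µM competing unlabeled TCR2 RNA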
GLD-1 RNA inh – GLD-1-TGE RNA interaction inhibition (C. elegans). Q17339. purified GLD-1 + fluorescein TGE RNA, fluorescence polarization. inhibition, % at 5.96 µM. hit rate 0.44% among 320,000. AID 2280;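 active means percent inhibition above a per-plate cutoff, the plate mean of test compounds plus 3 SD, cut at about 30% in these data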;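 further: 0% = DMSO wells with GLD-1 and probe and 100% = wells lacking GLD-1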
GSTO1 inh – GSTO1 inhibition, counter-screen for RBBP9 inhibitors; AID 1974; recombinant GSTO1, activity-based probe fluorescence polarization; P78417; hit rate 1.1% among 300,000; inhibition, % at 5.96 µM;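 active means inhibition above the campaign mean inhibition plus 3 SD, cut at about 35% in these data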;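 further: 0% = GSTO1-1 with DMSO and 100% = wells lacking GSTO1-1 enzyme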
Fam108B inh – Fam108B inhibition, counter-screen for RBBP9 inhibitors; inhibition, % at 9.51 µM; recombinant Fam108B, FP-Rh probe fluorescence polarization; hit rate 0.33% among 300,000;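 active means inhibition above the screen mean inhibition plus 3 SD, computed separately per campaign, cut at about 18% in these data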;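 further: inhibitors lower polarization as less probe binds the enzyme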
TPT1 inh – C. albicans TPT1 enzyme inhibition. recombinant caTPT1, FP RNA substrate dephosphorylation. inhibition, % at 5 µM. hit rate 0.81% among 300,000. AID 1962;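 active means inhibition above the mean of all tested compounds plus 3 SD, set per screening campaign, cut at about 24% in these data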;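 further: plate controls were DMSO alone for no effect and ferristatin control at 100 nM for full effect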
The depositor's hits bear a star; . = no result given. Not all compounds are listed. The share of hits here may be higher or lower than overall.

Fields – PAD4 FP inh | MEX-5 binding | GLD-1 RNA inh | GSTO1 inh | Fam108B inh | TPT1 inh
1. Cc1c(C=O)c2ccccn2c1C(=O)c1ccncc1
    -4 | -0.5 | 5 | 2 | 0 | -2
2. CC1(C)COC(c2cccc(C3=NC(C)(C)CO3)n2)=N1
    -2 | -1.5 | 5 | -2 | -1 | 0
3. O=C(CSc1nnc(-c2ccco2)n1Cc1ccccc1)NC(=O)NCc1ccccc1
    -1 | 0.2 | 1 | 7 | 0 | 4
4. CCSc1nnc2c(n1)[nH]c1c(C)cccc12
    2 | -0.2 | 3 | -6 | -2 | -4
5. Cc1c(/C=N/NC(N)=O)c2ccccn2c1C(=O)c1ccncc1
    0 | 0.5 | 4 | 11 | 7 | 0
6. Cc1cc(N/N=C/c2ccc(F)cc2)nc(-n2nc(C)cc2C)n1
    0 | 1.8 | 2 | -1 | -5 | -1
7. O=C(NCc1ccc(F)cc1)c1c2c(nc3ccccc13)CCC2
    -4 | -3.3 | 10 | 5 | 0 | 6
8. COc1ccc(/C=C2/Sc3ccc(C(=O)N4CCc5ccccc5C4)cc3NC2=O)cc1
    1 | 3.6 | -1 | -277 | -6 | -2
9. O=C(CSc1ccc2c(c1)OCCO2)Nc1ccc(Cl)cn1
    3 | -2.8 | 8 | 5 | 1 | -3
10. CCOC(=O)N/N=C/c1c(C)c(C(=O)c2ccc(F)cc2)n2ccccc12
    -2 | -0.9 | 6 | 3 | 6 | 2
11. C/C(=N/NC(=O)c1cccc(C)c1)c1c(O)cc(C)oc1=O
    5 | 3.4 | 8 | 1 | -2 | 0
12. CCOC(=O)c1cc(C(=O)OCC)c2cccc(C)n2c1=O
    -2 | -2.5 | 5 | 5 | -3 | -6
13. O=S(=O)(Nc1cccc(C(F)(F)F)c1)c1cnc[nH]1
    0 | -0.2 | -4 | 4 | 1 | 2
14. Cc1c(/C=N/NC(=O)c2cccnc2)c2ccccn2c1C(=O)c1ccc(F)cc1
    2 | -8.0 | -1 | 18 | 3 | 0
15. CC(C)CCn1nnnc1CN1CCN(c2ccccc2)CC1
    -4 | 0.8 | -7 | 2 | 1 | 0
16. CN1CCNC(=O)C1CC(=O)NCCC1=CCCCC1 (stereo unspecified)
    -5 | -0.1 | 2 | 7 | 2 | -2
17. CN1CCNC(=O)C1CC(=O)NCC1(c2ccccc2)CCCCC1 (stereo unspecified)
    -3 | 0.3 | 9 | 0 | -1 | 4
18. CCC(C)(C)n1nnnc1CN1CCN(c2nc3cc(OC)ccc3cc2C#N)CC1
    -1 | -9.3 | 8 | -11 | -2 | -4
19. CC1=C(C(=O)Nc2cccnc2)C(c2ccccn2)n2nnnc2N1 (stereo unspecified)
    -6 | 0.2 | -2 | 8 | -4 | 0
20. COc1cccc(OC)c1C1=NC(C)(C)CO1
    1 | 1.5 | 4 | 1 | 1 | -2
21. COc1ccc(OCC(=O)Nc2cccc(C(C)=O)c2)cc1
    4 | -1.0 | 2 | 2 | 0 | -1
22. COc1ccc(OC)c(CN(CCN2CCOCC2)S(=O)(=O)c2ccc(NC(C)=O)cc2)c1
    6 | 1.6 | 7 | 0 | -5 | 0
23. CN1CCN(C(=O)CNc2ccc(C(F)(F)F)cc2[N+](=O)[O-])CC1
    -1 | -6.7 | -4 | -7 | 0 | 3
24. Cn1c(SCC(=O)c2ccc3c(c2)OCCO3)nnc1C(F)(F)F
    4 | 0.9 | 6 | 5 | -2 | 2
25. COc1ccccc1NC(=O)C1=C(C)Nc2nnnn2C1c1ccncc1 (stereo unspecified)
    0 | -1.3 | 2 | 0 | 0 | 1
26. O=C1Nc2cc(C(=O)N3CCc4ccccc4C3)ccc2S/C1=C\c1ccccc1
    2 | . | -3 | -117 | -13 | -2
27. Cc1c(C=O)c2ccccn2c1C(=O)c1cccc([N+](=O)[O-])c1
    -1 | 1.2 | 5 | 2 | 0 | -4
28. Cc1ccc(NC(=O)C2CC(Cl)=CCC2C(=O)O)c([N+](=O)[O-])c1 (stereo unspecified)
    -2 | -0.8 | 3 | 6 | -2 | -1
29. Cc1cccc(-n2c(=O)[nH]c3c(C(N)=O)nc(-c4ccccc4Cl)nc32)c1
    9 | 0.4 | 4 | -1 | -3 | -7
30. COc1ccc(/C=C2\Sc3ccc(C(=O)N4CCc5ccccc5C4)cc3N(C)C2=O)cc1
    -3 | 1.8 | -3 | -33 | -1 | 2

Exported with one line to a screen: three of the compounds above.
8) COc1ccc(/C=C2/Sc3ccc(C(=O)N4CCc5ccccc5C4)cc3NC2=O)cc1
9) O=C(CSc1ccc2c(c1)OCCO2)Nc1ccc(Cl)cn1
10) CCOC(=O)N/N=C/c1c(C)c(C(=O)c2ccc(F)cc2)n2ccccc12

screen / no.	8	9	10
PAD4 FP inh	1	3	-2
MEX-5 binding	3.6	-2.8	-0.9
GLD-1 RNA inh	-1	8	6
GSTO1 inh	-277	5	3
Fam108B inh	-6	1	6
TPT1 inh	-2	-3	2

Later entries.
Fields – PAD4 FP inh | MEX-5 binding | GLD-1 RNA inh | GSTO1 inh | Fam108B inh | TPT1 inh
31. Cc1nn(-c2ccccc2)c2[nH]c(=O)c(CNCc3ccc4c(c3)OCO4)cc12
    1 | -0.2 | -4 | -2 | 2 | 0
32. CCOC(=O)CN1C(=O)SC(Nc2ccc(C)cc2)C1=O (stereo unspecified)
    -4 | -1.5 | 1 | 3 | 1 | 5
33. CCN1CCCC1CNS(=O)(=O)c1cccc(C(F)(F)F)c1 (stereo unspecified)
    2 | 0.8 | -2 | 1 | 2 | 3
34. Cc1cccc(NC2SC(=O)N(CC(=O)O)C2=O)c1 (stereo unspecified)
    -3 | -0.3 | 2 | 0 | 2 | -6
35. O=C(Nc1ccccc1N1CCCCC1)c1ncoc1-c1cccc(F)c1
    4 | 0.3 | -4 | 0 | 0 | 0
36. CCN1CCCC1CNS(=O)(=O)c1ccc(C(=O)Nc2ccccc2)cc1 (stereo unspecified)
    -1 | -3.2 | 2 | 1 | -3 | -6
37. CCN(CC)C(=O)C1=C(C)Nc2nnnn2C1c1cccnc1 (stereo unspecified)
    -8 | -1.1 | 1 | -3 | 2 | -2
38. COc1ccc(S(=O)(=O)N(CCCN2CCOCC2)Cc2ccc(OC)c(OC)c2)cc1
    -1 | 1.3 | 5 | 1 | 2 | 0

In the list so far, these contain fluorine.
Fields – PAD4 FP inh | MEX-5 binding | GLD-1 RNA inh | GSTO1 inh | Fam108B inh | TPT1 inh
6. Cc1cc(N/N=C/c2ccc(F)cc2)nc(-n2nc(C)cc2C)n1
    0 | 1.8 | 2 | -1 | -5 | -1
7. O=C(NCc1ccc(F)cc1)c1c2c(nc3ccccc13)CCC2
    -4 | -3.3 | 10 | 5 | 0 | 6
10. CCOC(=O)N/N=C/c1c(C)c(C(=O)c2ccc(F)cc2)n2ccccc12
    -2 | -0.9 | 6 | 3 | 6 | 2
13. O=S(=O)(Nc1cccc(C(F)(F)F)c1)c1cnc[nH]1
    0 | -0.2 | -4 | 4 | 1 | 2
14. Cc1c(/C=N/NC(=O)c2cccnc2)c2ccccn2c1C(=O)c1ccc(F)cc1
    2 | -8.0 | -1 | 18 | 3 | 0
23. CN1CCN(C(=O)CNc2ccc(C(F)(F)F)cc2[N+](=O)[O-])CC1
    -1 | -6.7 | -4 | -7 | 0 | 3
24. Cn1c(SCC(=O)c2ccc3c(c2)OCCO3)nnc1C(F)(F)F
    4 | 0.9 | 6 | 5 | -2 | 2
33. CCN1CCCC1CNS(=O)(=O)c1cccc(C(F)(F)F)c1 (stereo unspecified)
    2 | 0.8 | -2 | 1 | 2 | 3
35. O=C(Nc1ccccc1N1CCCCC1)c1ncoc1-c1cccc(F)c1
    4 | 0.3 | -4 | 0 | 0 | 0
